# Source: PubChem BioAssay (Southern Research Institute)
# Mtb growth: Confirmatory growth inhibition assay against Mycobacterium tuberculosis H37Rv, potency (AID 1949); most inactive calls were filed without a number and no value below 0 was filed; 1.6% of 100,000 active; inhibition, % at 10 µg/mL; hits with a dose series show IC50 in µg/mL;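 active = confirmed in a dose series; inconclusive = about 50% or more but not retested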;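 note: bacteria grown 7 days with compound before Alamar blue readout; 0% = untreated bacteria and 100% = reference antibiotic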
# * marks the source's active call; other numbers are inactive results; i = inactive; ? = inconclusive. Not all compounds are listed; the hit share may differ from the screen's.
SMILES,Mtb growth
COc1ccc2oc(-c3ccc(C)c(NC(=S)NC(=O)c4cccs4)c3)nc2c1,i
Clc1ccccc1-c1nnc2sc(-c3ccncc3)nn12,i
COc1ccccc1C(=O)Nc1ccc(-c2nc3ccccc3[nH]2)cc1,i
COc1ccc(NC(=O)CSc2nnc(-c3ccccc3)c(-c3ccccc3)n2)cc1,3.1%
COc1ccc(COc2ccc3ccc(=O)oc3c2)cc1,i
CCOC(=O)C1SC2(C(F)(F)F)CC1(O)c1c(C)cc(C)nc1O2 (stereo not drawn),i
Cc1nonc1OCCNc1ccc(C(F)(F)F)cc1[N+](=O)[O-],43.4%
CC1=C(C(=O)Nc2ccccc2)C(c2ccncc2)C(C#N)=C(SCC(=O)Nc2ccc(F)cc2)N1 (stereo not drawn),i
C=CCn1c(SCC(=O)Nc2cccc(SC)c2)nnc1-c1ccccc1O,0.7%
c1ccc2c(CN3CCN(C4CCCC4)CC3)cccc2c1,5.0%
CCCC(=O)Nc1ccc(Cl)c(NC(=S)NC(=O)c2ccc(C)cc2C)c1,1.2%
COc1cc(C)ccc1OCCOc1ccccc1C=O,3.4%
CC(=O)Nc1ccc(NC(=O)C(C)Oc2cccc(C)c2C)cc1 (stereo not drawn),i
COC(=O)c1cc(NC(=O)C2COc3ccccc3O2)ccc1Cl (stereo not drawn),i
CCOC(=O)c1c(-c2ccc(F)cc2)csc1NC(=O)c1cc(OC)cc(OC)c1,i

# Next part; it opens with the 6 that closed the last part.
SMILES,Mtb growth
c1ccc2c(CN3CCN(C4CCCC4)CC3)cccc2c1,5.0%
CCCC(=O)Nc1ccc(Cl)c(NC(=S)NC(=O)c2ccc(C)cc2C)c1,1.2%
COc1cc(C)ccc1OCCOc1ccccc1C=O,3.4%
CC(=O)Nc1ccc(NC(=O)C(C)Oc2cccc(C)c2C)cc1 (stereo not drawn),i
COC(=O)c1cc(NC(=O)C2COc3ccccc3O2)ccc1Cl (stereo not drawn),i
CCOC(=O)c1c(-c2ccc(F)cc2)csc1NC(=O)c1cc(OC)cc(OC)c1,i
NC(=O)C1CCN(C(=O)CCC2CCCC2)CC1,i
O=C(CCC(=O)n1nnc2ccccc21)n1nnc2ccccc21,1.5%
COC(=O)C1=C(C)Nc2nnnn2C1c1ccco1 (stereo not drawn),i
Cc1ccc(NC(=O)CCC(=O)c2ccccc2)cc1,i
N#CCn1nnc(-c2ccc3c(c2)OCO3)n1,i
CCOCC(=O)Nc1ccccc1C(=O)OCC,i
CCCCc1nnc(NC(=O)CSc2nc(C)cc(C)n2)s1,i
CC1CCCC(NCCCCOc2ccc(Cl)cc2)C1C (stereo not drawn),i
CCOC(=O)c1ccc(NC(=O)c2ccccc2I)cc1,4.9%
Cc1ccc(OCc2nnc(SCC(=O)Nc3ccccc3F)n2-c2ccccc2)cc1C,19.4%
COc1ccc(OC)c(N(CC(=O)Nc2cc(Cl)ccc2Cl)S(=O)(=O)c2ccc(OC)c(OC)c2)c1,i
CC1CN(C(=O)C2CCN(S(=O)(=O)c3ccccc3)CC2)CC(C)O1 (stereo not drawn),i
COc1cc(C(=O)Nc2nnc(CCc3ccccc3)s2)cc(OC)c1OC,8.1%
O=C(c1ccc([N+](=O)[O-])cc1)N1CCc2ccccc21,i
COc1ccccc1NC(=O)CSc1nncn1C,i

# 4 entries from above, with each value named:
CC1CN(C(=O)C2CCN(S(=O)(=O)c3ccccc3)CC2)CC(C)O1 (stereo not drawn)
- Mtb growth: i

COc1cc(C(=O)Nc2nnc(CCc3ccccc3)s2)cc(OC)c1OC
- Mtb growth: 8.1%

O=C(c1ccc([N+](=O)[O-])cc1)N1CCc2ccccc21
- Mtb growth: i

COc1ccccc1NC(=O)CSc1nncn1C
- Mtb growth: i

# Additional compounds
SMILES,Mtb growth
Cc1cc2c3c(c1C)C(=O)C(=O)N3C(C)(C)CC2C (stereo not drawn),?
COc1cc(SC)ccc1C(=O)Nc1ccc(C(C)=O)cc1,i
Cn1c(-c2ccc(F)cc2)n[nH]c1=S,i
CC(c1ccccc1)C1CC(=O)N(C2CCCCC2)C1=O (stereo not drawn),6.1%
Cc1cc(=O)oc2cc(OCC(=O)Nc3nnc(C(C)C)s3)ccc12,i
CC(C)(C)c1ccc(OCCNC(=O)c2cccc(Br)c2)cc1,5.19µg/mL*
O=C1OCCC1Sc1nc(-c2ccccc2)c(-c2ccccc2)o1 (stereo not drawn),i
O=C(c1cccs1)c1cn(CCOc2ccccc2F)c2ccccc12,?
Cc1c(NC(=S)NC(=O)c2cc(I)ccc2Cl)cccc1C(=O)O,0.9%
Cc1c(C(=O)NC(C)CN2CCCCC2)oc2ccccc12 (stereo not drawn),i
COc1ccc(NC(=O)c2cc(-c3ccccc3)nc3ccccc23)cc1Cl,i
COc1ccc(CCNC(=S)Nc2ccccc2)cc1C,i
Cc1nn(-c2ccccc2)c(N2CCCCC2)c1C=O,i
CCn1c(SCC(=O)Nc2c(C)cc(Br)cc2C)nnc1-c1ccc(OC)cc1,i
CC1CCN(C(=O)c2cc(Cl)ccc2NC(=O)c2ccco2)CC1,i
Cc1ccn2c(NC(=O)c3ccco3)c(-c3ccccc3)nc2c1,i
CCc1cc2c(SCC#N)ncnc2s1,i
Cc1cccn2c(=O)c3cc(S(=O)(=O)c4ccccc4)c(=N)n(C4CCCCC4)c3nc12,i
Clc1ccc(SCCOCCN2CCNCC2)cc1,i
O=C(NCC1CCCO1)c1cc2cc(Cl)ccc2oc1=O (stereo not drawn),49.1%
Cc1cc2c3c(c1)C1(C(=O)N3C(C)(C)CC2C)C(C#N)=C(N)Oc2c1c(=O)oc1ccccc21 (stereo not drawn),4.0%
Cc1cc(NC(=S)Nc2ccc(C)c(Cl)c2)n[nH]1,41.2%
CCCc1sc(N(C(=O)CC)c2ccc(C)cc2)nc1-c1ccc(Cl)cc1,i
Cc1c(Br)c(C(F)(F)F)nn1CC(=O)NCCN1CCOCC1,2.6%
Cc1ccc(S(=O)(=O)N(C)C2(C)CCS(=O)(=O)C2)cc1 (stereo not drawn),i
COc1cccc(C(=O)N2CCN(Cc3c[nH]c4ccccc34)CC2)c1OC,i
CC1CCc2c(sc3ncn(CC(=O)Nc4sc5c(c4C#N)CCC5)c(=O)c23)C1 (stereo not drawn),i
COC(=O)c1cccc(NC(=O)Cc2ccc(OC)c(OC)c2)c1,i
COc1ccc(OC2C(=O)N(c3ccc(F)cc3)C2c2ccc(C)cc2)cc1 (stereo not drawn),i
COc1ccccc1OCCCOc1ccccc1C,1.4%
CC1=C(C(=O)OC(C)C)C(c2ccc(F)cc2)N2C(=O)CCSC2=N1 (stereo not drawn),i
Cc1ccc(C(CC(=O)N2CCNCC2)c2ccccc2)c(O)c1C (stereo not drawn),i
CN(Cc1ccccc1)S(=O)(=O)c1ccc(NC(=O)c2ccc(Br)o2)cc1,5.7%
Cn1c(CNC(=O)c2ccccc2)nnc1SCc1ccc([N+](=O)[O-])cc1,i
CCc1ccc(NC(=O)c2ccccc2NC(=O)c2ccccc2Br)cc1,i
O=c1c2ccccc2[nH]c(=S)n1CCCSCc1ccco1,i
Cc1cccc(C(=O)Nc2ccc(OC(C)C)cc2)c1,i
C=CCSc1[nH]c(=O)cc(C)c1C(N)=O,i
Cn1c(SCC(=O)Nc2cccc(C(F)(F)F)c2)nnc1-c1ccccc1,i
Cc1cc(C)c(S(=O)(=O)Nc2ccc(CC#N)cc2)c(C)c1,3.2%
CCN1CCN(c2ccc(NC(=O)c3cc(OC)c(OC)c(OC)c3)cc2Cl)CC1,2.4%
O=C(Nn1cnnc1)c1ccc(OCc2ccccc2)cc1,i
CSc1ccccc1C(=O)Nc1ccc2c(c1)N(C(C)=O)c1ccccc1CC2,i
COc1ccccc1N1CCN(C2CC(=O)N(c3ccc(C)c(Cl)c3)C2=O)CC1 (stereo not drawn),i
CC1CCN(CCOCCOc2ccc(I)cc2)CC1,i
Cc1cccc(C)c1NC(=O)CCC1CCCC1,i
O=C(c1ccc(CNS(=O)(=O)c2cccc(Cl)c2)cc1)N1CCN(c2ccccc2)CC1,12.8%
CCCCC(=O)Nc1cccc(NC(=S)NC(=O)c2ccc(OC(C)CC)cc2)c1 (stereo not drawn),i
COc1cc(C(C)=O)ccc1OC(=O)C(C)N1C(=O)c2ccccc2C1=O (stereo not drawn),i
CSc1ccccc1NC(=O)c1c(C)noc1C,i
Cc1ccc(OCC(=O)Nc2ccc(Br)cc2C(=O)O)cc1,i
COC(=O)C1=C(C)NC(=O)C1(Nc1ccc(Cl)cn1)C(F)(F)F (stereo not drawn),i
CC(=O)Oc1ccc(C(=O)Nc2ccc(Nc3ccccc3)cc2)cc1,1.0%
CCOC(=O)c1c(NC(=O)c2ccncc2)sc(C)c1CC,2.5%
O=C(Nc1ccc([N+](=O)[O-])cn1)C(Sc1ccccc1)c1ccccc1 (stereo not drawn),i
CCOC(=O)CN(c1ccc(Cl)cc1)S(=O)(=O)c1ccc(OC)c(OC)c1,i
O=C(CC(c1ccccc1)c1ccccc1)NCC1(c2ccccc2)CCOCC1,i
CCN(CC)c1ccc(/C=N/NC(=O)c2cc(C)[nH]n2)cc1,i
CCN(CC)S(=O)(=O)c1ccc(C)c([N+](=O)[O-])c1,i
COc1cc(C(=O)Nc2cc(Cl)ccc2C(=O)O)ccc1OC(C)=O,i

# (next part)
SMILES,Mtb growth
C=CCc1ccc(OCCCOc2cccc3ccc(C)nc23)c(OC)c1,35.8%
O=C(Nc1ccc(Br)cc1C(=O)O)c1ccc(Cl)cc1Cl,i
CC(c1ccccc1C(O)(c1ccccc1)C(F)(F)F)N(C)C (stereo not drawn),0.5%
Cc1ccc(-n2c(SCC(=O)NC3CCCCC3)nnc2-c2ccccc2)cc1,i
O=C(Nc1ccccc1Cl)N1CCN(c2ccccn2)CC1,2.2%
Cc1ccc(NC(=O)C2CC(=O)n3cnnc3N2)cc1 (stereo not drawn),i
CC(=O)Nc1ccc(NC(=O)C(C)Oc2cccc(Cl)c2)cc1 (stereo not drawn),i
CC(Cc1ccccc1)NC(=O)c1ccccc1 (stereo not drawn),3.6%
O=S(=O)(NCc1cccs1)c1ccc(F)cc1,i
CN(CC(=O)Nc1ccc(I)cc1)S(=O)(=O)c1ccccc1,i
CCNC(=O)C(C)Sc1ccccc1 (stereo not drawn),i
C=CCn1c(SCC(N)=O)nnc1-c1ccncc1,i
O=c1ccc2cc(S(=O)(=O)n3cnc4ccccc43)ccc2o1,i
O=C(C1CCN(S(=O)(=O)c2cc(Cl)ccc2Cl)CC1)N1CCCC1,i
COc1ccc(OC(C)C(=O)N2CCN(c3ccccc3OC)CC2)cc1 (stereo not drawn),i
O=C(NCc1cccnc1)c1ccc(COc2cccc3ccccc23)o1,i
CCOc1ccc(-c2nc3cc(NC(=S)NC(=O)C(C)C)ccc3o2)cc1,i
O=C(CCCc1c[nH]c2ccccc12)NC1CC1,i
Cc1ccc(CN(CC(=O)N2CCOCC2)S(=O)(=O)c2ccc(Cl)cc2)cc1,i
CN1C(=O)c2ccc(N3CCCC3)cc2C1=O,i
CCC1(C)CC(CCNS(=O)(=O)c2ccc(C)cc2)(c2ccc(C)cc2)CCO1 (stereo not drawn),12.7%
Cc1ccc(C)c(NC(=O)Cn2nnc(-c3cccs3)n2)c1,i
Cn1c(=O)c2ncn(CC(=O)Nc3ccc(C(=O)NC4CCCCC4)cc3)c2n(C)c1=O,i
COc1ccccc1NC(=O)CN(c1ccc(Cl)c(C(F)(F)F)c1)S(C)(=O)=O,2.8%
CC(C)c1ccc(C(=O)NCc2ccccc2)cc1,i
CC(CCc1ccccc1)NC(=O)C(=O)NCc1ccco1 (stereo not drawn),i
Cc1cc(Br)cc(C)c1OCC(=O)Nc1ccc(S(=O)(=O)N(C)C)cc1,i
CN(C)c1ccc(NC(=O)CC2Sc3ccc(C(F)(F)F)cc3NC2=O)cc1 (stereo not drawn),i
Cn1cnc2cc(NCc3cccc(Br)c3)ccc21,i
COC(=O)N1CCN(S(=O)(=O)c2ccc(F)cc2)CC1,i

# Some of these compounds in order of length of the SMILES, high to low:
SMILES,Mtb growth
Cn1c(=O)c2ncn(CC(=O)Nc3ccc(C(=O)NC4CCCCC4)cc3)c2n(C)c1=O,i
COc1ccccc1NC(=O)CN(c1ccc(Cl)c(C(F)(F)F)c1)S(C)(=O)=O,2.8%
Cc1ccc(CN(CC(=O)N2CCOCC2)S(=O)(=O)c2ccc(Cl)cc2)cc1,i
Cc1cc(Br)cc(C)c1OCC(=O)Nc1ccc(S(=O)(=O)N(C)C)cc1,i
CCOc1ccc(-c2nc3cc(NC(=S)NC(=O)C(C)C)ccc3o2)cc1,i
Cc1ccc(C)c(NC(=O)Cn2nnc(-c3cccs3)n2)c1,i
COC(=O)N1CCN(S(=O)(=O)c2ccc(F)cc2)CC1,i
CC(CCc1ccccc1)NC(=O)C(=O)NCc1ccco1 (stereo not drawn),i

# New compounds follow:
SMILES,Mtb growth
CC1CN(C2=NC(=O)/C(=C3/C(=O)N(Cc4ccc(F)cc4)c4ccccc43)S2)CC(C)O1 (stereo not drawn),i
Cn1ccnc1SCC(=O)NCCc1ccccc1,i
c1ccc(-c2csc(Nc3cccnc3)n2)nc1,?
CCC(=O)NC(=S)Nc1ccc2oc(-c3cccc(OC)c3)nc2c1,44.9%
CCC(C)Cn1c(C2CC(=O)N(c3ccccc3)C2)nc2ccccc21 (stereo not drawn),i
COc1ccc(N2CC(C(=O)NCc3ccccc3C)CC2=O)cc1 (stereo not drawn),i
NC(=O)c1sc2ncc3c(c2c1N)CCCC3,i
Clc1ccc(C2CC(c3cccs3)n3ncnc3N2)cc1Cl (stereo not drawn),?
CCc1ccc(N(CC(=O)N2CCN(c3cc(Cl)ccc3C)CC2)S(C)(=O)=O)cc1,5.2%
CCC(C)NCCOCCSc1ccc(Cl)cc1 (stereo not drawn),i
CC(C)(C)NC(=O)c1ccccc1N(Cc1ccccc1)S(C)(=O)=O,i
CC1CCN(S(=O)(=O)N(C)C)CC1,i
O=C(NCCNc1ccc(Cl)cc1[N+](=O)[O-])c1cccc(F)c1,i
NNC(=O)CNC(c1ccccc1)c1cc(Br)ccc1NC(=O)c1ccc(Br)cc1 (stereo not drawn),0.1%
Clc1ccc(Nc2nc(-c3cccnc3)cs2)nc1,4.4%
CCC(=O)Oc1ccc2c(=O)c(-c3ccc(Br)cc3)c(C)oc2c1,i
Cc1cc(NC(=O)Nc2ccccc2Cl)no1,0.2%
